# Compound activity as filed in PubChem.
# CBX7 inh: blocks human CBX7 binding to H3K27me3 peptide; normalised signal (fraction of DMSO) (test concentration not listed); AlphaScreen His6-CBX7 / biotin-H3K27me3 peptide binding; hits give low values; 66,000 compounds, 1.1% hits; in the data active = normalised signal below about 0.5;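 also: 100 nL library stock added to about 20 µL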
# CBX7 inh z-score: recorded beside CBX7 inh, whose call it bears; z-score; measured here: z-score of CBX7 signal; some inactives read as strong as hits; reference of the scale not given here;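 same signal on another scale; lower means less binding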
# The depositor's hits bear a star.
# Sequence of screens: CBX7 inh, CBX7 inh z-score
(1) CC1(C)OC2CC3C4CC(F)C5=CC(=O)C=CC5(C)C4(F)C(O)CC3(C)C2(C(=O)CO)O1 (stereo unspecified)
  1.1, 0.32
(2) COc1ccc(C(=O)Nc2c(-c3ccc(F)cc3)nc3cc(C)ccn23)c(OC)c1
  0.85, -4.4
(3) COc1ccc(C(=O)Nc2nc3ccccc3n2CCOc2ccc(Cl)cc2)cc1
  1.1, 1.9
(4) Cc1ccc(-c2nc3ccc(Br)cn3c2Nc2ccccc2C)cc1
  1.1, 0.42
(5) Cc1oc(-c2cccc(Cl)c2)nc1Cn1c(SCc2ccccc2F)nc2ccncc21
  1, 0.33
(6) Cc1ccn2c(NC(=O)c3cccc(C(F)(F)F)c3)c(-c3ccccc3)nc2c1
  1.2, 2

# Three entries picked at random from those above, as already listed:
# Sequence of screens: CBX7 inh, CBX7 inh z-score
(4) Cc1ccc(-c2nc3ccc(Br)cn3c2Nc2ccccc2C)cc1
  1.1, 0.42
(5) Cc1oc(-c2cccc(Cl)c2)nc1Cn1c(SCc2ccccc2F)nc2ccncc21
  1, 0.33
(2) COc1ccc(C(=O)Nc2c(-c3ccc(F)cc3)nc3cc(C)ccn23)c(OC)c1
  0.85, -4.4

# The list is partial; the hit share may differ from the screen's.
